# GLA inh pH 4.5: blocks human alpha-galactosidase A at pH 4.5 | activity change, negative = inhibition, % at 105 µM | 230,000 tested, under 10 active | purified enzyme, 4-MU-alpha-Gal fluorescence, pH 4.5; inconclusive = small, poorly fitted or top-dose-only inhibition, or a rising curve; inactive = flat fitted curve, though single readings scatter; no compound was filed as active;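 further: 0% = full activity with enzyme and -100% = basal without enzyme; dose as in the result columns while the protocol names 77 µM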
# Target sequence (P06280 whole entry, looked up): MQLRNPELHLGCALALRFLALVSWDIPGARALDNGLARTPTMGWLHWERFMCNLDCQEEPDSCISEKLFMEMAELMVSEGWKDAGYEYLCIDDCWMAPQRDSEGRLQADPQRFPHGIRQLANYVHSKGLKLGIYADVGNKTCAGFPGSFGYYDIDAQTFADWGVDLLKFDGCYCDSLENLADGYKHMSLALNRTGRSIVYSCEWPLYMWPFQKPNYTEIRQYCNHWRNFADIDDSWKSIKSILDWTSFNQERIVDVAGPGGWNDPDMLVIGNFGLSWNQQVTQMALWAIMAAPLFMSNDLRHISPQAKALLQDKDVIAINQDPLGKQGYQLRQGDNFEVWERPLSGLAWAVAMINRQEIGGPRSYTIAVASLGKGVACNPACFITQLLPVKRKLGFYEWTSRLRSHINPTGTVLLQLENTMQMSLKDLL
# Rango release inh: prevents RanGTP from dissociating the Rango-importin beta complex; Biochemical FRET Rango-importin beta, RanGTP-induced dissociation; Potency, µM (highest dose often 46.1 µM), for the others: at the highest dose activity change, negative = inhibition; 340,000 compounds, 0.071% hits; AID 540253; active means falling FRET ratio curve, often poorly fitted, with flat reads before Ran was added; inconclusive means other falling curves, or compound fluorescence or quenching; inactive means flat or rising ratio curve;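 further: potency means the concentration at half of the fitted maximal effect; % of control where 0% means no effect; nearly all actives have a fitted effect of over 45% in size; -100% = wells without RanGTP and RCC1; the record marks most hits as doubtful in a second field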
#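 Compounds sat 5 min at room temperature with 0.1 uM Rango biosensor plus 0.25 uM importin beta, then FRET pre-read. RanGTP-RCC1 (0.6 uM Ran, 2mM GTP, 0.2 uM RCC1) added for 45 min, and the CFP/YFP post-read measured blocked complex dissociation.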
# Rango-impB inh: inhibitors of Rango-importin beta complex formation; Q14974; Rango CFP/YFP FRET sensor + importin beta, 45 min; Potency, µM (top dose mostly 92.2 µM), for inactives: at the top dose inhibition of complex formation; 340,000 compounds, 0.031% hits; AID 540263; active = rising FRET ratio curve, often small or poorly fitted; inconclusive = mostly compound fluorescence or quenching in the first reads; inactive = flat curves in all reads;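 further: potency means the concentration at half of the fitted maximal effect; 0% = DMSO wells and 100% = buffer wells lacking importin beta; nearly all actives have a fitted effect of over 15% in size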
#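 Inhibition scored from the CFP 486 nm/YFP 530 nm FRET ratio 45 min after adding 0.125 microM importin beta to 50 nM Rango biosensor preincubated 5 min with compound (room temperature, PBS with DTT, Tween-20, BSA). No-importin wells as positive control.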
# miR-21 FLuc: miR-21 reporter, rising signal | HeLa miR-21 FLuc reporter, luciferase, 48 h | Potency, µM (doses to about 38.3 µM), without a hit: at the top dose reporter change, positive = more light | 340,000 tested, under 10 active | AID 2288; active = well fitted rising curve with a large enough effect; inconclusive = small, poorly fitted or top-dose-only effect; inactive = no such curve, though single readings can be large or run the other way;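 further: % of control where 0% means no effect; miR-21 action dims this reporter so a rising signal means less miR-21 action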
#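 Luminescence from a firefly luciferase reporter carrying a miR-21 binding site downstream, stably expressed under a CMV promoter in HeLa cells that make miR-21 endogenously, reports miRNA modulation after 48 h compound exposure up to approximately 40uM final.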
# The depositor's hits bear a star; ? = inconclusive; / = not tested or not shown; & = joins results of further samples. Only part of the results is shown; the hit share may differ from the screen's.
# Below each compound – GLA inh pH 4.5	Rango release inh	Rango-impB inh	miR-21 FLuc
- CCSc1oc(-c2ccco2)nc1S(=O)(=O)c1ccc(F)cc1
 : -2	1%	1.2%	-3%
- Cn1c2ccccc2c(=O)c2c(=O)n(-c3ccc(F)cc3)c(C3CCCCC3)nc21
 : /	1%	5.7%	/
- NS(=O)(=O)c1ccc(NC(=O)COC(=O)c2cc([N+](=O)[O-])ccc2Cl)cc1
 : -6	-7%	-2.3%	0%
- COc1cccc(N2CC(C(=O)N3CCC4(CC3)CC(=O)c3ccccc3O4)CC2=O)c1 (stereo not given)
 : /	3%	-2.4%	/
- CCN(c1ccccc1)S(=O)(=O)c1cnc[nH]1
 : -4	-3%	-0.7%	0%
- Cn1c(N)c(C(=O)COC(=O)/C=C/c2ccc(Cl)c(Cl)c2)c(=O)n(C)c1=O
 : /	1%	1.6%	/
- Cc1cc(NC(=O)c2cccc(S(=O)(=O)N3CCOCC3)c2)no1
 : -9	-3%	-0.3%	-5%
- CC(C)C[C@@H](CNCC(=O)[C@H](C)NC(=O)c1[nH]cnc1C(=O)N[C@@H](C)CN)NC(=O)c1nc[nH]c1C(=O)N[C@@H](C)C(=O)O
 : /	15%	-1.5%	/
- CCN(CC(=O)Nc1cccc(OC)c1)c1ncnc2sc(C)c(C)c12
 : 1	1%	-4.1%	0%
- CNC(=O)CN(c1ccc(F)cc1)S(=O)(=O)c1cc(C)ccc1OC
 : 5	-6%	-2.3%	-4%
- COc1cc(/C=C2\C(=N)N3N=C(S(C)(=O)=O)SC3=NC2=O)cc(OC)c1OCCOc1ccccc1C
 : /	2%	0.5%	-11%
- COc1cccc(/C=N/c2sc(Cc3ccccc3)c(C)c2C(N)=O)c1O
 : 4	?	?	-9%
- O=C(NCc1ccccc1Cl)[C@@H]1CCCN1S(=O)(=O)c1ccc(Cl)cc1
 : /	-5%	-3.0%	/
- COc1ccccc1CNC(=O)COC(=O)c1ccc(C)c(S(=O)(=O)N2CCCCC2)c1
 : /	2%	-2.4%	-4%
- COc1ccc(C2NC3=C(CCC3)C3(C#N)C(OC)(OC)N=C(N)C23C#N)cc1 (stereo not given)
 : 0	?	?	2%
- O=C(CCCN1C(=O)c2cccc3cccc(c23)C1=O)NCc1ccco1
 : -3	1%	5.8%	-1%
- COC(=O)c1cnc2c(c(C)nn2C)c1OC
 : 5	-4%	-0.7%	-4%
- CSc1nnc(C)c(=O)n1COC(=O)c1ccc(S(=O)(=O)N(C)C)cc1
 : 10	17%	-6.6%	1%
- Cc1cc(C)nc(NS(=O)(=O)c2ccc(NC(=O)c3ccc(S(=O)(=O)N4CCOCC4)cc3)cc2)n1
 : -17	-2%	2.7%	-5%
- O=[N+]([O-])c1cc(Cl)c(O)c2ncccc12
 : -24	9%	-0.1%	18%
- C=CCn1c(C)cc(C(=O)COC(=O)c2ccc3c(c2)NC(=O)CS3)c1C
 : -1	-7%	-2.9%	-23%
- Cc1ccc(-n2ncc3c2ncn2c(-c4ccncc4)nnc32)cc1
 : -2	/	/	-16%
- Cn1cccc1/C=N/NC(=O)c1sc2ccccc2c1Cl
 : 1	-14%	-1.2%	-47%
- Cc1ccc(C(O)CN2C3=NCCCN3c3ccccc32)cc1 (stereo not given)
 : -7	1%	7.2%	-9%
- COCCOC(=O)c1c(C)n(C)c2ccc(OC(=O)N3CCOCC3)cc12
 : 5	-7%	-2.0%	1%
- CCc1ccccc1S(=O)(=O)Cc1ccc(C(=O)NCC2CCCO2)o1 (stereo not given)
 : 4	-1%	1.6%	-2%
- CCNC(=O)CSC1=N/C(=C\c2ccc(O)c(OCC)c2)C(=O)N1c1ccc(OC(F)F)cc1
 : /	?	?	2%
- COc1cc(C(C)=O)ccc1OCC(=O)N1CCc2ccccc2C1
 : /	27%	2.5%	-5%
- CC(=O)Nc1cc2c(cc1NC(=O)c1cnccn1)OCCO2
 : 2	-9%	-1.0%	-5%
- COc1ccc(NS(=O)(=O)c2ccc(S(=O)(=O)N3CCCC3)cc2)cc1
 : -9	-5%	0.3%	15%
- COc1ccc(C(=O)NCC(C)(C)N2CCOCC2)cc1S(=O)(=O)NCc1ccc(Cl)cc1
 : /	-18%	2.9%	/
- Cc1ccc2cc(COC(=O)c3ccncc3)c(=O)[nH]c2c1
 : -1	2%	-0.3%	-4%
- Cc1ccc(S(=O)(=O)N2CCN(CC(=O)N3CCCC3)CC2)c(C)c1
 : /	1%	-0.3%	/
- CC(=O)Nc1cccc2cc(O)ccc12
 : /	6%	2.2%	/
- Cc1nc(SCC(=O)Nc2nc3ccccc3s2)c(C#N)c(C)c1C
 : -6	?	?	?
- COC(=O)C1=C(C)N(Cc2cccnc2)C(=O)/C1=C\c1sccc1C
 : -4	-5%	?	0%
- CC1(C)Cc2ccccc2C(=NCCCCCC(=O)O)N1
 : 3	/	/	-4%
- COc1ccc(C(=O)/C=C\N2CCOCC2)cc1
 : -3	-23%	-4.8%	-5%
- Cc1ccc(NC(=O)CCc2c(C)nn(-c3ccc(N4CCCCC4)nn3)c2C)cc1F
 : /	-2%	-0.6%	-28%
- C=CC[C@@H](CC(=O)NCCO)C(=O)N[C@H](C)COC(=O)[C@@H](CC=C)Cc1ccc(F)cc1
 : /	-6%	-0.5%	/
- O=C(CSc1nnc(-c2ccco2)o1)c1ccccc1
 : 2	?	?	-19%
- COC(=O)CCC(=O)Nc1nnc(C(F)(F)F)s1
 : 3	2%	-2.3%	7%
- O=C(Nc1ccc(-c2ccccc2)cc1)c1ccco1
 : -3	10%	0.1%	0%
- COc1ccc(Cl)cc1NC(=O)CN1CCN(S(=O)(=O)N2CCCCC2)CC1
 : /	-4%	-0.1%	-5%
- COc1ccc(C(=O)N2CCC(N3CCN(c4ccccc4)CC3)CC2)cc1
 : 2	-1%	-0.2%	3%
- O=C1OCCN1CCNCc1cn(-c2ccc(F)cc2)nc1-c1ccccc1Cl
 : -1	1%	3.0%	-6%
- O=C(NCc1cccnc1)c1ccc(-c2ccccc2[N+](=O)[O-])o1
 : 4	21%	?	-29%
- C=CCOc1cccc(CNn2cn[nH]c2=S)c1
 : 9	-5%	1.0%	-3%
- Cc1[nH]c(=O)[nH]c(=O)c1NS(=O)(=O)c1ccccc1
 : -1	-8%	?	-10%
- COc1ccc(C2C3=C(CC(C)(C)CC3=O)N(CC(=O)O)C3=C2C(=O)CC(C)(C)C3)cc1OC
 : /	?	?	1%
- O=C(NC1CCCCCCC1)c1ccc(Br)o1
 : /	-5%	-3.9%	-43%
- Cc1nc(-c2ccccc2)sc1C1(C)CC(c2ccc([N+](=O)[O-])cc2)=NO1 (stereo not given)
 : 1	-2%	-2.8%	-7%
- CCC(=O)N1CCc2cc(S(=O)(=O)NC(Cc3ccccc3)C(=O)NC3CCCCC3)ccc21 (stereo not given)
 : -5	9%	3.2%	-13%
- Cn1c(=O)c2c(O)c([N+](=O)[O-])c(=O)n(C)c2n(C)c1=O
 : -19	-2%	6.6%	2%
- CC(C)NC(=O)N(C)C[C@H]1Oc2c(NC(=O)Cc3ccccc3)cccc2C(=O)N([C@H](C)CO)C[C@@H]1C
 : /	-7%	1.1%	/
- Cc1ccc(/C=C(\NC(=O)c2ccccc2)C(=O)N2CCCC2C(=O)O)cc1 (stereo not given)
 : 1	13%	2.2%	3%
- O=C1C2CCCCN2C(=O)N1CCCN1CCN(c2ccc(F)cc2)CC1 (stereo not given)
 : /	9%	0.1%	1%
- CCN(CC)S(=O)(=O)c1cccc(-c2n[nH]c(=S)n2/N=C/c2ccc(OC)cc2)c1
 : 1	14%	-1.0%	-13%
- CC(C)NC(=O)NC(=O)COC(=O)c1ccc(F)cc1F
 : -12	1%	6.2%	-8%
- CCC(=O)NCCc1nc2cc(NC(=O)c3cccc([N+](=O)[O-])c3)ccc2n1C
 : /	-4%	7.6%	-37%

# Part of the list above, with the structure last.
GLA inh pH 4.5 | Rango release inh | Rango-impB inh | miR-21 FLuc | compound
-19 | -2% | 6.6% | 2% | Cn1c(=O)c2c(O)c([N+](=O)[O-])c(=O)n(C)c2n(C)c1=O
/ | -7% | 1.1% | / | CC(C)NC(=O)N(C)C[C@H]1Oc2c(NC(=O)Cc3ccccc3)cccc2C(=O)N([C@H](C)CO)C[C@@H]1C
1 | 13% | 2.2% | 3% | Cc1ccc(/C=C(\NC(=O)c2ccccc2)C(=O)N2CCCC2C(=O)O)cc1 (stereo not given)
/ | 9% | 0.1% | 1% | O=C1C2CCCCN2C(=O)N1CCCN1CCN(c2ccc(F)cc2)CC1 (stereo not given)
1 | 14% | -1.0% | -13% | CCN(CC)S(=O)(=O)c1cccc(-c2n[nH]c(=S)n2/N=C/c2ccc(OC)cc2)c1

# (continued)
# Below each compound – GLA inh pH 4.5	Rango release inh	Rango-impB inh	miR-21 FLuc
- O=C(NCC1CCCO1)c1cccnc1Nc1ccccc1F (stereo not given)
 : 8	-6%	-1.9%	-13%
- CSc1nnc(Cn2c(=O)sc3ccccc32)n1-c1ccccc1C
 : /	-3%	-0.1%	/
- Oc1cccc(CN2CCCCC2)c1
 : 4	-2%	1.4%	-10%
- O=C(CN1CCN(C2CCCCC2)CC1)c1ccc2cc[nH]c2c1
 : -2	1%	-1.1%	-10%
- Cc1cccc(NC(=O)CCn2c(=O)oc3ccccc32)c1
 : /	9%	-2.8%	-11%
- CCN(CC)S(=O)(=O)c1ccc(/C=C/C(=O)OCC(=O)N(C(C)C)C(C)C)cc1
 : ?	0%	?	0%
- CN1CCN(c2ccccc2NC(=O)c2ccc(-c3cccc([N+](=O)[O-])c3)o2)CC1
 : -10	-1%	8.8%	-11%
- O=C(c1ccco1)N1CCN(CCCCOc2cccc3ccccc23)CC1
 : -13	6%	3.8%	-11%
- CC1CCN(C(=O)C2Cc3ccccc3CN2S(=O)(=O)c2ccc(F)cc2)CC1 (stereo not given)
 : 0	23%	2.1%	-1%
- COc1c(F)c(F)c(C(=O)O)c(Nc2ccc(C)cc2C)c1F
 : 4	2%	4.4%	0%
- CCCc1nc(NC(=O)c2ccccc2)nc(NC(=O)c2ccccc2)n1
 : -1	4%	?	5%
- CCCCNS(=O)(=O)c1ccc2nc(-c3cccnc3)cc(C(=O)NC(C)C)c2c1
 : -8	20%	-1.7%	-11%&0%
- Cc1ccc(-n2nc(C(=O)O)c(O)cc2=O)cc1
 : 6	8%	0.2%	2%
- CCCCNCCCCOc1ccccc1
 : 0	-10%	-3.1%	-1%
- CC(Sc1cccc[n+]1[O-])C(=O)Nc1ccc(Oc2ccccc2)cc1 (stereo not given)
 : 2	5%	-0.8%	-5%
- S=c1[nH]cnc2scc(-c3ccc(Br)cc3)c12
 : -3	16%	0.6%	2%
- Cc1nnc(NC(=O)c2ccc(S(=O)(=O)N(C)c3ccccc3)cc2)s1
 : /	5%	1.3%	/
- CCN(CC)S(=O)(=O)c1ccc2[nH]c(=O)cc(C(=O)NCC3CCCO3)c2c1 (stereo not given)
 : /	-24%	0.5%	/
- CCOC(=O)N1CCN(C(=O)C2CCN(S(=O)(=O)c3cc(C)ccc3OC)CC2)CC1
 : 3	-6%	-0.3%	-2%
- COc1ccc(-c2nnc(SCc3nc4ccccc4s3)n2C(C)C)cc1
 : -8	-17%	-1.0%	-42%
- OC(CN1CCN(c2ccc(F)cc2)CC1)c1ccc(Cl)cc1 (stereo not given)
 : /	-24%	0.0%	-4%
- CCN(CC)CCCNc1nc(C)cc(COC)c1C#N
 : 1	9%	0.1%	-1%
- COc1ccc(CC(=O)NCCN2CCOCC2)cc1
 : /	-16%	1.5%	1%
- COc1ccc2nc(SCC(=O)NC3CC3)c(C#N)cc2c1
 : /	19%	0.9%	-8%
- O=C(CN(C(=O)c1ccco1)c1cccc(F)c1)NCc1ccc(F)cc1
 : -1	15%	0.2%	-2%
- O=C(CN1CCN(Cc2ccccc2)CC1)N1CCCCCC1
 : -1	8%	-2.6%	-1%
- CC(C)CC(=O)Nc1ccc(C(=O)CN2C(=O)NC3(CCOc4ccccc43)C2=O)cc1 (stereo not given)
 : /	-7%	-2.6%	/
- Cc1cc(C(C)(C)C)c(OC(=O)[C@@H]2OC(c3ccccc3)=C[C@H]2c2ccccc2)c(C(C)(C)C)c1
 : /	32%	0.8%	/
- N#Cc1ccccc1OCC(=O)NC(=O)NCc1ccccc1
 : -6	7%	1.9%	-12%
- CCOCCCNC(=O)CCc1nnc2n(CCC(C)C)c(=O)c3ccccc3n12
 : /	6%	-3.8%	1%
